D2 potentiator – human D2 receptor positive allosteric modulation | P14416 | actives 0.23% (n = 360,000) | DiscoveRx D2 beta-arrestin cells, luminescence, 90 min; 100% = 57 uM dopamine signal | potentiation, % (test concentration not listed); active = potentiation of 50% or more; inconclusive = 30% to 50%; inactive = 30% or less;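 also: compound concentration not given in the record; tested on top of an EC20 dose of dopamine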
Target sequence (P14416 whole entry, looked up): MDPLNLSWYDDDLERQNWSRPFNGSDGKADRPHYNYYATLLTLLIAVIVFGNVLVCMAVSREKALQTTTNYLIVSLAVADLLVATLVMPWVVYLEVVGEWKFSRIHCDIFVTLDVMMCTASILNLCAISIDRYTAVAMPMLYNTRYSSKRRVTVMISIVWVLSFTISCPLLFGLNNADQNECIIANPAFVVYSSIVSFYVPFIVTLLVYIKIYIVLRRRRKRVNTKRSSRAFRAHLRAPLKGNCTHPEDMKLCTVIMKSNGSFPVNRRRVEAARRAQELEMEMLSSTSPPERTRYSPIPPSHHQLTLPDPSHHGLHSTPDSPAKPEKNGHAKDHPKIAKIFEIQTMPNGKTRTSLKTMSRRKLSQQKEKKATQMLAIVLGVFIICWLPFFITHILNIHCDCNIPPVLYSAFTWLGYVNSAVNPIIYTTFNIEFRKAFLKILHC
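D2 cells co-treated with compound plus 50 nM dopamine (EC20) for 90 min at 37 deg C to detect potentiation. Beta-arrestin recruitment was read as enzyme-fragment luminescence after 1 h at ambient temperature. Full response was set by 57 uM dopamine.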
PINK1 expr mod – changes PINK1 expression. PINK1 immunofluorescence, high-content cytometry, 24 h. AID 624263. actives 0.2% (n = 410,000). Potency, µM (titrated, usually from 76.6 µM), without a hit: top-dose activation (PINK1 increase), actives largely listed as activators; active = well fitted activation curve with a large enough effect; inconclusive = small, poorly fitted or top-dose-only effect; inactive = flat fitted curve, though single readings scatter; cell line not stated here;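 also: potency is read from the fitted curve at half-maximal effect; % of control where 0% means no effect; nearly all actives have a fitted effect of over 65% in size; a mitochondrial uncoupler was the plate control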
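Stable cell line, 250 cells/well, 12 h attachment; compounds pinned at 5 concentrations, 24 h; CCCP control. Fixed with nuclear dye, primary antibodies 12 h at 10 degrees C, secondary plus cell stain; laser-scanning cytometer read.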
TRPML1 agonist – activates the human TRPML1 channel; Q9GZU1; actives 0.12% (n = 410,000); AID 624414; activation, % (test concentration not listed); TRPML1-expressing cells, Ca2+ dye fluorescence, FDSS; host cell line not named in the record; reference of the full effect not given here; in the data active = activation above about 50%; inconclusive = about 30% to 50%; inactive = below about 30%; also: 0% is about no effect; the text of the record puts the active cut at 80%
Target sequence (Q9GZU1 whole entry, looked up): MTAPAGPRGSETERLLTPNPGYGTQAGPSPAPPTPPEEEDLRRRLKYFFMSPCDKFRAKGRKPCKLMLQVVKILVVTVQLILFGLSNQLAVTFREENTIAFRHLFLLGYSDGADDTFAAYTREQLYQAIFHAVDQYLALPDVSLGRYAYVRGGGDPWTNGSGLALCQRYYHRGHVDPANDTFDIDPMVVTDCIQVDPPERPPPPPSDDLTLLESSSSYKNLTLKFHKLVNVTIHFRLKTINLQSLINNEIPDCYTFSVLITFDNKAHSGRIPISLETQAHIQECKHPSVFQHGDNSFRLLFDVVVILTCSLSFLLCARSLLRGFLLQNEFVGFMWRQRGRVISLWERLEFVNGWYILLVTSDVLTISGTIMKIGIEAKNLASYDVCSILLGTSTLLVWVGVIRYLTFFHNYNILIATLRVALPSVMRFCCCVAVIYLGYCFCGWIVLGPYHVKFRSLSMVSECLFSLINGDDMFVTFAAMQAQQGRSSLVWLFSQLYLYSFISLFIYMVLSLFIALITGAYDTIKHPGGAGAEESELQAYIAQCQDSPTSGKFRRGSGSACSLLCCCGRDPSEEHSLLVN
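Agonist activity was taken from a 110 s kinetic Ca2+ dye read on the FDSS after pinning compounds onto TRPML1-DL cells. The cells were seeded at 1,500/well with Tet inducer, incubated about 16 h, then dye-loaded at room temperature.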
Six1-Eya2 inh – blocks human Six1 binding to Eya2 | AlphaScreen GST-Six1/His-Eya2 binding, biochemical; hits give low values; control for the full effect not named in the record | activity change, % (concentration not given with the values) | actives 0.56% (n = 360,000) | AID 651725; in the data active = activity change below about -65%; inconclusive = about -30% to -65%; inactive = above about -30%; also: % is scaled to controls: 0 for no effect and ±100 for the full control effect
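AlphaScreen luminescence read after one hour at 37 °C in darkness. Pin-transferred compounds met GST-Six1 and His-Eya2 protein (5X stock 250 nM/500 nM) plus glutathione donor and Ni-chelate acceptor beads (5X, 50 ug/mL).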
CtBP-E1A blk – CtBP/E1A binding inhibition; AlphaScreen GST-E1A/His-CtBP binding, 1536-well; hits give low values; control for the full effect not named in the record; activity change, % (test concentration not listed); actives 0.49% (n = 340,000); AID 651724; in the data active means activity change below about -65%; inconclusive means about -30% to -65%; inactive means above about -30%; also: % is scaled to controls: 0 for no effect and ±100 for the full control effect; compound concentration not given in the record
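Steps: dispense buffer (Tris pH 8.0, NaCl 300 mM, TCEP 1 mM, BSA, Tween 20); add 5X protein mix (GST-E1A, His-CtBP, 125 nM each); pin 23 nL compound; 2 h at 37 °C, dark; add 5X beads (50 ug/mL); 1 h; read.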
D2 ag – agonists of human D2 dopamine receptor (beta-arrestin); P14416; AID 624465; activation, % (concentration not given with the values); DiscoveRx PathHunter D2 beta-arrestin, luminescence, 90 min; 100% = 57 uM dopamine signal; actives 0.084% (n = 360,000); in the data active = activation above about 40%; inconclusive = about 15% to 40%; inactive = below about 15%; also: compound concentration not given in the record; the text of the record calls up to 30% inactive
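DiscoveRx PathHunter D2 beta-arrestin cells (2,100/well) attached overnight, then compound-stimulated 90 min at 37 C in HBSS/10 mM HEPES/0.1% Tween-20 buffer; beta-galactosidase complementation read by luminescence after 1 h at ambient temperature. Dopamine 57 uM final (EC100) as control.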
The depositor's hits bear a star; ? = inconclusive; / = not tested or not shown; [ ] = another dose, or the depositor's remark.

SMILES	D2 potentiator	PINK1 expr mod	TRPML1 agonist	Six1-Eya2 inh	CtBP-E1A blk	D2 ag
COCCN(C(=O)c1cc(Cl)nc2ccccc12)c1c(N)n(Cc2ccccc2)c(=O)[nH]c1=O	-1	0.3%	0.1	2	3	2.1
CC(c1ccccc1)n1c(Br)nc2c1c(=O)[nH]c(=O)n2C (stereo not given)	3	0.1%	-0.4	0	4	5.8
Cc1cccc(C)c1NC(=O)C(C)Sc1n[nH]c(-c2ccncc2)n1 (stereo not given)	6	-1.3%	0.5	-4	4	1.0
CC(C)=NNC1=NC(C)(C)Cc2ccccc21	-6	-0.4%	0.9	0	2	-0.7
COc1ccc(N(Cc2cc3ccccc3[nH]c2=O)S(=O)(=O)c2ccc(OC)cc2)cc1	-44	1.6%	-0.6	-13	-6	-2.3
COc1ccc(C(=O)Nc2cccc(C(C)=O)c2)c(OC)c1OC	13	-1.2%	-0.1	3	7	0.6
O=C(CNC(=S)N(Cc1ccc(F)cc1)C1CCCCC1)NCC1CCCO1 (stereo not given)	1	-0.7%	-0.4	-3	-1	-1.7
Cn1c(=O)c2c(nc(SCc3ccccc3F)n2C)n(C)c1=O	1	-0.1%	1.1	13	-25	4.2
COc1cccc(OC)c1C(=O)NC(=O)NNc1cc(C(F)(F)F)cc(C)n1	5	1.4%	-0.6	1	-8	-3.5
CCC(=O)Nc1ccccc1Oc1ccccc1	4	0.3%	-0.4	1	4	-1.5
COc1cc(C2=NOC(C(=O)NCc3ccccn3)C2)cc(OC)c1OC (stereo not given)	-12	-0.9%	0.7	3	9	1.2
O=C(O)CCCNc1c(C(=O)Nc2ccc(Cl)cc2)cc([N+](=O)[O-])cc1[N+](=O)[O-]	5	25%	2.6	-4	3	-2.0

In the list so far, these have an aryl thioether with sulfur outside any ring.
SMILES	D2 potentiator	PINK1 expr mod	TRPML1 agonist	Six1-Eya2 inh	CtBP-E1A blk	D2 ag
Cc1cccc(C)c1NC(=O)C(C)Sc1n[nH]c(-c2ccncc2)n1 (stereo not given)	6	-1.3%	0.5	-4	4	1.0
Cn1c(=O)c2c(nc(SCc3ccccc3F)n2C)n(C)c1=O	1	-0.1%	1.1	13	-25	4.2

The listing picks up, starting five compounds before the break.
SMILES	D2 potentiator	PINK1 expr mod	TRPML1 agonist	Six1-Eya2 inh	CtBP-E1A blk	D2 ag
Cn1c(=O)c2c(nc(SCc3ccccc3F)n2C)n(C)c1=O	1	-0.1%	1.1	13	-25	4.2
COc1cccc(OC)c1C(=O)NC(=O)NNc1cc(C(F)(F)F)cc(C)n1	5	1.4%	-0.6	1	-8	-3.5
CCC(=O)Nc1ccccc1Oc1ccccc1	4	0.3%	-0.4	1	4	-1.5
COc1cc(C2=NOC(C(=O)NCc3ccccn3)C2)cc(OC)c1OC (stereo not given)	-12	-0.9%	0.7	3	9	1.2
O=C(O)CCCNc1c(C(=O)Nc2ccc(Cl)cc2)cc([N+](=O)[O-])cc1[N+](=O)[O-]	5	25%	2.6	-4	3	-2.0
CC(C)c1ccc(C(=O)N2CCCCC2c2cc(C(=O)NCc3cccnc3)no2)cc1 (stereo not given)	-7	2.6%	-0.3	2	0	-5.9
Cc1ccc(CN2CCN(/N=C/c3ccc(C(F)(F)F)cc3)CC2)cc1	-15	?	0.5	3	-14	1.1
Cc1ccccc1OCC(=O)Nc1ccc2c(c1)n(C)c(=O)n2C	-1	-1.3%	-0.1	0	-3	1.1
C=CCn1c(SCC(=O)NC)nc2sc3c(c2c1=O)CCC3	-8	0.9%	-1.1	5	-18	-7.9
O=C(NNS(=O)(=O)c1ccccc1)C1CCN(S(=O)(=O)c2ccc(Cl)cc2)CC1	11	-2.7%	0.1	3	2	-2.7
Cc1ccc(S(=O)(=O)/N=C(\c2ccc(F)cc2)n2c(C)nc3ccccc32)cc1	-1	-0.9%	-0.5	10	1	-4.1
Cc1cc(C(c2ccc(C)o2)c2ccc(C)o2)c(O)c([N+](=O)[O-])c1	-19	4.3%	0.7	?	?	-6.1
O=C(CSc1nc(C(F)(F)F)cc(=O)[nH]1)N1CCOCC1	-10	-1.4%	-0.4	10	7	0.5
COC(=O)c1ccc(NC(=O)Cc2ccccc2)cc1	-23	0.4%	-0.8	2	-2	-4.1
O=C(Nc1ccccc1C(=O)Nc1ccccn1)c1cccc([N+](=O)[O-])c1	0	1.0%	2.3	-4	-16	-3.5
CCOC(=O)CSc1nnc2c3ccccc3n(CC)c2n1	0	1.1%	1.1	1	-3	-4.7
Cc1cccc(N2CCN(C(=S)c3ccc(-c4ccccc4[N+](=O)[O-])o3)CC2)c1	-10	8.0%	0.4	?	0	-0.8
Cc1cccc(N2CCN(C(=O)CSc3nc4ccccc4nc3N3CC(C)OC(C)C3)CC2)c1C (stereo not given)	-12	3.2%	-0.6	5	-5	-4.9
CCCC[C@@H]1CNC(=S)N1CCCc1cc(OC)c(OC)c(OC)c1	-7	-0.9%	0.8	1	7	-0.3
Cc1occc1C(=O)Nc1nn[nH]n1	-4	-0.7%	0.1	9	4	-3.8
O=C(NCc1ccccn1)C1CCN(S(=O)(=O)c2cnc[nH]2)CC1	-18	-1.4%	0.5	0	3	2.0
CC(C)CC(NC(N)=O)C(=O)Nc1ccc(Cl)c(Cl)c1 (stereo not given)	-16	1.4%	0.3	3	-18	-4.0
CN(C(=O)CN1C(=O)c2cccc(N)c2C1=O)C1CCCCC1	0	-0.4%	1.0	-1	9	-5.5
Cc1ccc([C@H]2C[C@@H](n3cc(-c4ccc(F)cc4)nn3)[C@H](O)CN2C(=O)C2CCCCC2)cc1	-5	-0.2%	3.6	3	0	3.1
CCOC(=O)C1(C)CCCN1C(=O)c1cncc(Br)c1 (stereo not given)	-6	2.4%	-0.2	4	0	2.5
COCCNC(=O)c1cc2c(=O)n3cccc(C)c3nc2n1C	-6	7.5%	-1.0	2	5	-2.2
CCCCOc1ccc(C(C)NC(=O)C2CCCN(S(=O)(=O)CCC)C2)cc1 (stereo not given)	0	5.2%	0.0	-7	17	-1.1
CCOc1ccc(N2C(=O)/C(=C\c3ccc(OC)c(O)c3)S(=O)(=O)C2c2cccc([N+](=O)[O-])c2)cc1 (stereo not given)	-3	-1.8%	-0.5	22	1	-4.5
C=CCN(C(=O)c1csnn1)C(C(=O)NC1CCCC1)c1ccc(OC)cc1 (stereo not given)	-13	-0.5%	-0.8	3	15	-3.9
Cc1nc(N)sc1C(=O)N/N=C/c1cccnc1	-3	-0.8%	0.0	-27	-20	-1.0
Cc1ccc(C(=O)COC(=O)CN2C(=O)C3C4C=CC(C4)C3C2=O)cc1C (stereo not given)	-9	2.2%	-0.1	-3	-1	-7.2
Cc1noc(C)c1C(=O)NCC(=O)Nc1ccccc1Br	-12	4.9%	-0.4	7	/	-4.3
Cc1ccccc1CS(=O)(=O)Cc1ccc(C(=O)NCCCN2CCCC2=O)o1	-17	-3.3%	4.3	-2	23	-1.8
Cc1nn(-c2ccccc2)c2sc(C(=O)N(CC(=O)NC3CCCC3)Cc3ccco3)cc12	7	1.8%	0.8	8	-6	0.3
CCc1nc2ccc(C(=O)Nc3cccc(OCC(=O)N(C)C)c3)cn2c1N(CCC(C)C)CCN(C)C	-7	0.0%	-0.1	2	-6	-3.6
COc1ccccc1NC(=O)CCC(=O)N(Cc1ccc(OC)c(OC)c1)c1nccs1	-2	0.1%	-0.6	2	-15	-11
CCOc1cc(/C=N/O)ccc1OCc1ccc([N+](=O)[O-])cc1	2	0.4%	2.3	-6	-9	-1.2
Cc1nn(C)c(C)c1S(=O)(=O)N1CCC(C(=O)NC2CCCCC2)CC1	-22	1.0%	1.4	6	2	-1.9
O=C(c1ccccc1)c1cc2c(cc1[N+](=O)[O-])OCCO2	-1	2.3%	3.4	-10	-4	-0.9
C/C(=N\NC(=O)c1ccncc1)c1cccs1	-8	-0.1%	2.8	0	10	-4.9
COc1ccccc1CNC(=O)COC(=O)C1CCN(c2ccc(C(F)(F)F)cn2)CC1	-2	-1.3%	1.0	3	8	-3.0
COCCNC(=O)c1onc(CSc2cccc(OC)c2)c1C(=O)O	-2	0.0%	-0.7	1	1	-1.0
Cc1ccc(CNc2ccc(N3CCOCC3)c(C(=O)O)c2)s1	-13	0.4%	0.1	2	6	0.0
O=C(Nc1ccccc1N1CCCC1)C1CCN(C(=O)c2ccc(Cl)cc2)CC1	-31	-1.8%	-0.4	-8	-15	-3.5
C[C@H](CO)N1C[C@H](C)[C@@H](CN(C)Cc2ccc(-c3ccccc3)cc2)Oc2c(NC(=O)c3ccncc3)cccc2C1=O	-3	0.9%	-0.5	?	?	1.5
N#Cc1nc(-c2ccco2)oc1N1CCC(Cc2ccccc2)CC1	-3	1.2%[38.3 µM]	1.6	?	-27	0.8
O=C1CSC(=S)N1N=Cc1ccc(Cl)s1	-11	-3.6%	1.3	?	?	2.7
N#CCSc1nnc(C2CCCCC2)n1-c1ccccc1	0	-1.6%	3.9	3	-2	-0.7
O=c1cc(CO)occ1OCc1cccc(F)c1	4	-0.4%[38.3 µM]	-0.1	5	5	-3.0
CCC(C)[C@H](NC(=O)N1CCn2c1nc1ccccc12)C(=O)NCCc1ccc(OC)c(OC)c1 (stereo not given in full)	-3	6.8%	-0.8	-6	/	5.7
CC1(C)CC(=O)C=C(Nc2ccccc2C#N)C1	-3	0.8%	0.1	0	5	-19
CCc1ccccc1N1C(=O)C(Cl)=C(N2CCOCC2)C1=O	9	0.1%	/	1	/	2.5
Cc1ccccc1C(=O)Nc1ccccc1Sc1ccccc1	11	1.3%	0.0	55	51	-1.9
Cc1ccc2c(c1)c(=O)c(Br)c(C)n2Cc1ccccc1	-18	6.0%	-0.4	21	29	-4.7
COCCn1c(=S)[nH]c2cc(C(=O)N3CCc4ccccc4C3)ccc2c1=O	-7	2.4%	-0.4	77	44	-3.9
CCCc1nnc(-c2ccc(OC)cc2)o1	-4	0.5%	0.0	-2	0	-1.3
C/C(=N\NC(=O)c1ccccn1)C12CC3CC(CC(C3)C1)C2	-1	/	0.4	-13	11	-1.0
CC(NC(=O)c1cccc(Cn2cc([N+](=O)[O-])cn2)c1)c1ccc(C(C)(C)C)cc1 (stereo not given)	-20	8.3%[38.3 µM]	1.8	-3	-4	0.3
COc1cc(NC(=O)CC(C)n2ccnc2)cc(OC)c1 (stereo not given)	-16	2.7%	0.9	16	19	-4.2
Cc1c(Cl)cccc1-n1c(SCC(=O)NCc2cccs2)nnc1-c1ccncc1	-20	-0.1%	-0.2	-2	-5	-1.1
CCCC(=O)Nc1ccc(C(=O)N/N=C/c2cccnc2)cc1	3	4.3%[38.3 µM]	0.2	0	-3	0.9
O=C(CN1CCOCC1)Nc1ncc(Cc2cccc3ccccc23)s1	7	/	0.9	-2	11	3.2
CCn1c(Sc2ccc([N+](=O)[O-])cn2)nnc1-c1ccco1	7	-2.0%	1.2	23	24	4.1

Source: PubChem BioAssay (National Center for Advancing Translational Sciences (NCATS))

An unsorted share of the library; 1.3% or so of the library scored in one or more.
